Bioassay records (PubChem)
MT1-MMP act inh: blockers of MT1-MMP proenzyme processing, primary screen, HT1080 RFP-PRO-GFP cells, GFP/RFP fluorescence; GFP/RFP ratio fluorescence, overnight; percent of plate control window, DMSO zero; GFP/RFP ratio change, % at 20 µM; 0.061% of 360,000 active;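 active = GFP/RFP ratio change of at least 30% with cell ATP level not reduced by more than half and red fluorescence within 50% of control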; note: strong numbers were not always called active
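Test system: HT1080 RFP-PRO-GFP cells; Benchmarks: DMSO and RFP-L50D-GFP cell wells; Timing: cells overnight before dosing, compound overnight, 37 °C, 5% CO2; Compound: one 20 µM compound dose with 1% DMSO; Read-out: GFP/RFP fluorescence ratio.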
UUG fidelity: modulators of yeast start codon fidelity, primary screen, whole organism, S. cerevisiae, single point, plate reader | S. cerevisiae UUG-firefly luciferase reporter, luminescence/redox ratio | activity score, % at 18.7 µM | 0.13% of 350,000 active;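 active = replicate mean at a twofold rise or more, about +100% in these data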;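 note: firefly luciferase made from a UUG start codon reports start codon fidelity; reporter light over untreated wells divided by growth signal over untreated wells; some hits fall short of that in this replicate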
PABP FP inh: PABP poly(A) RNA binding inhibitors, primary screen, biochemical, fluorescence polarization, uHTS; inhibition, % at 35 µM; 1% of 290,000 active; Polyadenylate-binding protein 1 (Homo sapiens), P11940;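 active = 50% or more with normal probe brightness, or confirmed in later tests; inconclusive = above 50% with abnormal brightness, or retests that disagree; inactive = below 50% or failed in later tests; about a fifth of its hits are not listed in these tables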;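 note: calls also rest on retests at 20 µM and on dose response follow-up; controls were probe without protein and protein plus probe with vehicle; some compounds called inactive have numbers as strong as hits; many hits fall short of the cut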
Target sequence (P11940 whole entry, looked up): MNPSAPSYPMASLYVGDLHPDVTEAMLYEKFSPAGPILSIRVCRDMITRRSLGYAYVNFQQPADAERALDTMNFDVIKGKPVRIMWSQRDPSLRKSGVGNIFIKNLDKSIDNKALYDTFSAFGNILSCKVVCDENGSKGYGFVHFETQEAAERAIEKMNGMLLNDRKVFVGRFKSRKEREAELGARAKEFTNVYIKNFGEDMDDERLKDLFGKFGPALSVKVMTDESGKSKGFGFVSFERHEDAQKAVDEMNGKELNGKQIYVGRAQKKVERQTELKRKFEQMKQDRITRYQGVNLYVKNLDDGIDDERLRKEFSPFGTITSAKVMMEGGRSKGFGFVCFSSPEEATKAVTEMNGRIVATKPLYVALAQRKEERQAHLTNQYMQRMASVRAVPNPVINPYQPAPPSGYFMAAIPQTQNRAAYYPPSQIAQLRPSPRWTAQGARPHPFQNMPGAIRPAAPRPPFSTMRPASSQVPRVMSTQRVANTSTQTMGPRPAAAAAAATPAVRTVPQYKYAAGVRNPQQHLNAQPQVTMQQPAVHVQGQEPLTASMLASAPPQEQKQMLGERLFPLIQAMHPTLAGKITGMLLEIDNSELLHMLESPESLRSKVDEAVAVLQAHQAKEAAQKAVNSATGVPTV
HIV Env fusion: inhibitors of HIV-1 Env-driven cell-cell fusion, primary screen, HeLa-JRFL effector, CEM21 target cells, luciferase; inhibition, % at 12.3 µM; AID 651610, 2012; 1.1% of 360,000 active;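 active = mean replicate inhibition score of at least 50 and every replicate individually at or above 50; inconclusive = only one of the two criteria met; inactive = mean below 50 and not all replicates reaching 50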;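 note: 0% = plate neutral controls and 100% = maraviroc near 300 nM; one replicate is shown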
Rce1 inh: yeast Rce1p protease inhibitors, primary screen, biochemical, fluorescence, cell-free homogeneous; 0.27% of 290,000 active; calls only; CAAX prenyl protease 2 (Saccharomyces cerevisiae (strain ATCC 204508 / S288c)), Q03530; yeast membranes, quenched prenylated peptide cleavage fluorescence;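 active = fall in fluorescence gain of 50% or more versus controls, with final raw signal at or below 3038400; inconclusive = same 50% fall but final raw signal above 3038400; inactive = fall in fluorescence gain under 50%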;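 note: plate controls were neutral control wells for no effect and wells lacking membranes for full effect; tested at 10 µM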
CSC inhib: cancer stem cell viability inhibitors, primary screen, luminescence; cancer stem cell-like cells viability; inhibition, % at 7.5 µM; 1.1% of 300,000 active;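 active = mean at 75% or more and at least half the replicates too; inconclusive = mean and replicates disagree; tested in HMLE shEcad cells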;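 note: 0% = median of negative and 100% = median of positive control wells; the first replicate is given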
eIF4H inh: human eIF4H binding inhibitors, primary screen, translation initiation inhibitor project, biochemical, uHTS, fluorescence polarization. Eukaryotic translation initiation factor 4H (Homo sapiens), Q15056. eIF4H fluorescence polarization binding assay. inhibition, % at 35 µM. 0.94% of 290,000 active;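 active = 50% or more with normal probe brightness, or confirmed in later tests; inconclusive = above 50% with abnormal brightness, or retests that disagree; inactive = below 50% or failed in later tests; about a fifth of its hits are not listed in these tables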;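 note: calls also rest on retests at 20 µM and on dose response follow-up; 0% = protein and probe with vehicle and 100% = probe without protein; strong numbers were not always called active; many hits fall short of the cut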
eIF4H inh retest: also measured in eIF4H inh; calls as there; inhibition, %; compound at 20 µM; confirmation average;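 mean of two retest wells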
PABP FP inh retest: also measured in PABP FP inh; calls as there; inhibition, %; compound at 20 µM; confirmation repeats;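 mean of two retest wells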
MT1-MMP act inh RFP: further read-out of MT1-MMP act inh, marked with its call; RFP signal change, %; measured here: RFP expression control read;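 0 = vehicle wells; hits needed this value within 50% of zero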
Numbers without * were called inactive; i = inactive; u = inconclusive; x = no result given; + = active, no number.

SMILES | MT1-MMP act inh | MT1-MMP act inh RFP | UUG fidelity | PABP FP inh | HIV Env fusion | Rce1 inh | CSC inhib | eIF4H inh | others
O=C(NN=Cc1c(F)cccc1F)c1ccccc1NS(=O)(=O)c1cccs1 | 0.5 | 1.2 | -10.3 | x | -5.3 | x | -1.3 | x
Cc1noc(C)c1COC(=O)c1ccc2c(c1)OCCO2 | 5.0 | -0.4 | -10.0 | -3.4 | 4.0 | x | -17.5 | 4.2
COc1ccccc1NC(=O)C1CCN(S(=O)(=O)c2ccc3c(c2)NC(=O)C(C)S3)CC1 (stereo not given) | 4.6 | -6.4 | 20.7 | -4.1 | -9.2 | i | -4.3 | -10.1
CCOC(=O)CNC(=S)N1CCn2c(nc3ccccc32)C1 | 0.2 | 3.2 | x | -4.2 | -17.7 | i | -11.2 | -0.7
COc1cc(CC(=O)OCC(=O)NCc2cccs2)cc(OC)c1OC | -2.0 | 0.4 | -27.9 | x | x | x | -19.1 | x
Cc1cc(NC(=O)CN(C)S(=O)(=O)c2cnc[nH]2)ccc1Br | 2.3 | -1.1 | -23.0 | -6.5 | -3.4 | i | -8.6 | -8.2
CN(C)CCCNc1nc2cc(-c3cnn(Cc4ccccc4)c3)sc2c(=O)n1C | 0.1 | 1.7 | 14.1 | x | -2.0 | x | x | x
O=C(Nc1ccc(Br)cc1)C1CCC(=O)N1Cc1ccccc1Cl (stereo not given) | 2.1 | -1.7 | -3.5 | -14.2 | x | i | -0.6 | -15.2
COC(=O)c1cccc(F)c1C(=O)c1cccc2ccccc12 | 1.4 | -1.2 | 0.4 | x | 1.0 | x | x | x
CCN(CC)S(=O)(=O)c1ccc2c(c1)nc(CCC(=O)OCC(=O)Nc1c(F)cccc1F)n2C | 2.7 | 3.6 | x | 15.8 | x | i | -5.5 | 4.7
O=C(Nc1ccc2c(c1)OCCO2)c1c(Cl)cccc1Cl | 2.6 | 4.1 | -27.5 | x | -22.4 | x | x | x
COc1ccccc1CNCC(O)(c1ccc(F)cc1)c1ccc(F)cc1 | -4.3 | 1.6 | 2.0 | -4.2 | 32.8 | i | 3.9 | 0.3
O=C(NCc1ccc2c(c1)OCO2)c1ccc(CSCc2ccccc2Cl)o1 | 1.1 | 4.1 | x | 2.7 | 9.3 | i | 4.2 | -9.6
Cc1c(Cl)cccc1N/C(=N/S(=O)(=O)c1cccs1)c1ccccc1 | 1.5 | 5.1 | x | -4.4 | 16.9 | i | -5.0 | -5.7
CC(=O)N1Cc2ccccc2C(C)CC12CCCCC2 (stereo not given) | 4.4 | -10.1 | -5.4 | 2.4 | 4.1 | i | -5.8 | -9.5
COc1ccc(-c2[nH]ncc2/C=C(/C#N)C(=O)NC2CCCCC2)cc1 | -14.5 | -9.1 | -7.2 | 1.2 | -16.9 | i | 7.9 | -5.7
COc1ccc(S(=O)(=O)N(C)C[C@H]2Oc3c(NC(=O)Nc4ccc(C(F)(F)F)cc4)cccc3C(=O)N([C@H](C)CO)C[C@@H]2C)cc1 | -4.4 | -8.4 | -16.9 | x | x | x | 49.5 | x
CCC(C)[C@H]1CNC(=S)N1CCc1cc(C(F)(F)F)cc(C(F)(F)F)c1 (stereo not given in full) | 7.6 | -3.6 | -23.7 | -7.3 | 16.8 | i | 4.9 | -12.7
Cc1csc(NC(=O)CSc2nnc(-c3ccco3)n2C)n1 | -2.0 | 3.7 | x | -6.9 | -3.2 | i | 3.1 | 1.4
CC(=O)Nc1ccc(N2C(=O)CC(N3CC(C)OC(C)C3)C2=O)cc1 (stereo not given) | 0.9 | 10.6 | 8.4 | -3.3 | x | i | x | -10.9

Reprinted from the part before: 2 compounds, then new ones.
SMILES | MT1-MMP act inh | MT1-MMP act inh RFP | UUG fidelity | PABP FP inh | HIV Env fusion | Rce1 inh | CSC inhib | eIF4H inh | others
Cc1csc(NC(=O)CSc2nnc(-c3ccco3)n2C)n1 | -2.0 | 3.7 | x | -6.9 | -3.2 | i | 3.1 | 1.4
CC(=O)Nc1ccc(N2C(=O)CC(N3CC(C)OC(C)C3)C2=O)cc1 (stereo not given) | 0.9 | 10.6 | 8.4 | -3.3 | x | i | x | -10.9
OCC[C@@H]1C[C@H](O)[C@@H](O)[C@]2(Cc3ccccc3O2)O1 | 1.1 | -0.4 | -4.8 | -11.3 | x | i | -4.8 | -1.0
Cc1cccc(OCc2nnc(SCC(=O)N3CCc4ccccc43)n2C)c1 | -9.9 | -4.6 | -14.3 | -10.6 | -13.7 | i | -9.5 | -3.5
COc1cccc(Nc2nc(N)c([N+](=O)[O-])c(N3CCOCC3)n2)c1 | 3.3 | 0.3 | -12.1 | -1.7 | 36.3 | i | 3.8 | -6.9
COc1cccc(CN2CCNC(=O)C2CC(=O)NCCCN2CCCC2=O)c1 (stereo not given) | -4.8 | -1.0 | -4.0 | x | 3.4 | i | 0.6 | x
CCOC(=O)C1=CC[C@@H](c2ccncc2)N(S(=O)(=O)c2ccc(C)cc2)C1 | -5.0 | -8.7 | -15.7 | x | -6.6 | x | x | x
CN(Cc1ccco1)C(=O)C(Cc1ccccc1)NS(=O)(=O)c1ccc2c(c1)CCC(=O)N2 (stereo not given) | -2.9 | 4.8 | -5.9 | -5.7 | u | i | -6.9 | -10.7
O=C(O)COC(=O)C1C(c2ccccc2)C(C(=O)O)C1c1ccccc1 (stereo not given) | 1.4 | 3.8 | -11.0 | 15.4 | -2.7 | i | -3.2 | 3.1
CC12C=CC3(CN(Cc4ccccc4)C(=O)C3C1C(=O)NCc1ccco1)O2 (stereo not given) | -4.1 | 1.3 | x | 2.7 | -56.8 | i | -4.7 | -0.1
Cc1ccc(-n2c(SCC(N)=O)nc3c(oc4ccccc43)c2=O)cc1 | -1.0 | -5.5 | -11.7 | 1.7 | -4.4 | i | 9.0 | -11.7
CC(=O)Nc1ccc(NS(=O)(=O)c2cc(-c3cnc(C4CC4)o3)ccc2C)cc1 | 2.9 | -4.7 | -6.0 | 10.6 | 2.6 | i | 16.8 | 2.6
Cc1ccnc(NC(=O)CCC2CCCCC2)c1 | -4.5 | -3.1 | -25.6 | 1.5 | -126.4 | x | -13.5 | 4.2
NC(=O)[C@@H]1[C@@H]2C(=O)N(c3ccc(F)cc3)C(=O)[C@@H]2[C@H]2C=Cc3ccccc3N21 | -15.5 | 12.5 | -14.9 | 38.5 | 16.1 | i | -13.8 | 53.7 | eIF4H inh retest=14.6;PABP FP inh retest=43.5
O=C(c1cccc(Cl)c1)C1CCCN(Cc2ccc(N3CCNC3=O)cc2)C1 (stereo not given) | 2.8 | 0.2 | -9.9 | -7.7 | -10.1 | i | -7.7 | -7.2
C#CCOCCOCCOCCNc1nc(N2CCN(C(=O)[C@H]([C@@H](C)CC)n3cc([C@@H](N)Cc4ccc(O)cc4)nn3)CC2)nc(N2CCN(C(=O)[C@H](Cc3cc4ccccc4[nH]3)n3cc([C@@H](N)C(C)CC)nn3)CC2)n1 (stereo not given in full) | x | x | x | 25.2 | x | i | -15.7 | 46.8
NCCCC[C@H]1CN=C(N)N1CCc1cccc2ccccc12 | -1.4 | 1.7 | -12.8 | x | 48.9 | i | -17.3 | x
COc1cc(N(CCCn2cnc3c(SC)ncnc32)CCCn2cnc3c(SC)ncnc32)cc(OC)c1OC | 1.1 | 2.2 | -4.4 | x | -138.4 | x | x | x
O=c1c2cn[nH]c2[nH]c(=S)n1-c1ccccc1 | 8.7 | 3.9 | 0.1 | -1.9 | -12.7 | i | 8.8 | -6.9
COc1ccc(-c2nc(SC)n(C(=O)c3ccco3)n2)cc1 | 2.0 | 1.6 | -9.6 | 1.0 | x | i | 30.6 | -0.3
Cc1ccc(S(=O)(=O)NC2=NCN(CCOC(=O)c3ccccc3)CN2)cc1 | 4.2 | 3.7 | -1.8 | -3.0 | x | i | -2.0 | -3.6
Cc1c(Cl)cccc1NC(=O)C1C2C=CC(C2)C1C(=O)O (stereo not given) | 1.5 | 1.7 | -26.5 | 11.7 | 2.7 | i | -6.2 | -6.9
CCOc1ccccc1NC(=S)N1CCN(c2cccc(OC)c2)CC1 | -3.9 | -7.1 | -23.7 | 7.7 | -14.7 | i | 5.8 | -6.4
OC(c1ccc(F)cc1)c1nc(/C=C/c2ccccc2)cs1 (stereo not given) | 4.4 | -1.4 | -14.2 | x | -68.6 | x | x | x
CC(C)Sc1nc2ncnc(N)c2[nH]1 | -7.1 | -1.8 | -7.4 | 4.3 | 21.1 | i | -10.8 | 1.2
O=C(O)CNc1ccccc1C(=O)O | 1.2 | 5.5 | 5.9 | 39.3 | -0.7 | + | -15.4 | 74.0* | eIF4H inh retest=72.1*;PABP FP inh retest=34.2
COc1ccc(OC)c(S(=O)(=O)N(C)CC(=O)Nc2ccc3c(c2)OCO3)c1 | -2.1 | -1.1 | -10.1 | -9.3 | x | i | -1.6 | -6.7
O=C(N/N=C/c1cccc(O)c1)N/N=C/c1cccc(O)c1 | x | x | -11.6 | 1.5 | -9.4 | i | 0.5 | -2.3
Cc1ccc(-c2oc3ncnc(N)c3c2-c2ccc(C)cc2)cc1 | 1.2 | -1.5 | -7.9 | -12.3 | 13.1 | i | x | 5.4
CC1(C)CC(=O)C2=C(C1)OC1=C(C(=O)CC(C)(C)C1)C2c1cc([N+](=O)[O-])cc([N+](=O)[O-])c1O | -0.7 | -0.4 | x | 10.6 | -4.2 | i | -6.5 | 1.4
COc1ccc(NC(=O)C(NC(=O)c2ccc(=O)[nH]c2)c2ccc(C)cc2)cc1 (stereo not given) | 2.2 | 4.0 | -4.1 | 5.0 | 3.1 | i | -10.6 | 3.5
CCC(C)OC(=O)n1ccc(C(=O)Nc2nccs2)n1 (stereo not given) | 3.3 | -0.5 | -7.8 | 4.0 | x | i | 2.5 | -5.6
C/C(=N\NC(=O)C(N)=O)c1ccc(NC(=O)c2cccs2)cc1 | 1.8 | -1.8 | x | -13.8 | -3.9 | i | -4.9 | 44.6
CCN(c1ccc(NC(=O)COC(=O)c2ccc(C)s2)cc1)C(C)C | 3.0 | 4.8 | -3.8 | 9.1 | u | i | -11.5 | -11.7
O=C(c1ccc(-c2ccc([N+](=O)[O-])cc2)o1)N1CCN(S(=O)(=O)c2cccs2)CC1 | -7.0 | -0.4 | -12.9 | x | -0.4 | x | x | x
Cc1cnc(C(=O)OCC(=O)Nc2ccc(C)c(S(=O)(=O)N(C)C)c2)cn1 | 5.6 | 1.1 | x | 0.3 | -1.9 | i | -5.3 | 2.4
CCN(CC)C(=S)NC(=O)C12CC3CC(CC(C3)C1)C2 | 0.4 | 0.4 | -16.4 | -5.8 | 6.3 | i | -4.4 | -11.3
CNC(=O)c1cc(C(=O)c2ccc(C(F)(F)F)cc2F)c[nH]1 | 0.4 | 4.5 | x | -8.7 | 4.9 | i | -2.5 | -5.1
COc1ccc(NC(=O)N(C)C[C@H]2Oc3ccc(NC(=O)Cc4ccccc4)cc3CC(=O)N([C@H](C)CO)C[C@H]2C)cc1 | 2.5 | 3.1 | 9.8 | x | 12.0 | x | x | x

Some of the compounds tested; rates above refer to the full screens.
